S aureus helic: inhibitors of S. aureus replicative helicase, primary screen, biochemical, fluorescence unwinding readout. inhibition, %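 (tested at about 80 µM)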. 0.05% of 120,000 active. purified S. aureus helicase, fluorescence unwinding assay; about half of the hits fall short of the stated cut;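 active = both duplicates at 50% or more, or one of them with a favoured structure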;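 also: 0% = mean of negative control wells and 100% = mean of positive control wells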
MgrA-DNA mod: S. aureus MgrA activity modulators, primary screen, biochemical, S. aureus Newman, fluorescence polarization; inhibition, %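 (about 10 µg/mL by stock and volumes)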; 0.13% of 84,000 active; MgrA-DNA binding;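 active = above 50% in either of two replicates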;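 also: 0% = protein plus DNA without compound and 100% = DNA alone without protein; higher means less MgrA bound to DNA so lower polarization; one replicate is shown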
* marks the source's active call; other numbers are inactive results; . = not tested or not shown. A portion of the library; rates above refer to the full screens.

SMILES	S aureus helic	MgrA-DNA mod
CCOC(=O)C1=C(N)n2c(s/c(=C/c3ccco3)c2=O)=C(C(=O)OCC)C1c1ccco1 (stereo unspecified)	4	-0.8
O=C(NCCc1nc2ccccc2[nH]1)C1CCCCC1	0	0.3
CC(C)(C)NCc1ccc(-c2ccccc2)o1	-2	-3.0
CCOC(=O)c1c(-c2ccccc2)oc2ccc(O)c(CN3CCOCC3)c12	-11	.
S=C(NCc1ccco1)Nc1cccnc1	.	-2.1
NC(=S)SC(CC(=O)c1ccccc1)c1ccsc1 (stereo unspecified)	.	-2.5
Cc1cc(NC(=O)COC(=O)Cn2[nH]c(=O)c3ccccc3c2=O)no1	-3	.
N=c1sc(SCc2ccccc2)nn1CC(=O)c1ccc2c(c1)OCCO2	5	.
CCCC(CCC)C(=O)O	.	-0.9
CN(C)c1cccc2c(/C=N/O)ccc(N(C)C)c12	16	0.9
CCc1nnc(NC(=O)CC(=O)Nc2ccccc2C(=O)O)s1	8	-2.0
Cc1ccc2nc(NC(=O)c3ccc4c(c3)SC3=NS(=O)(=O)CCN34)sc2c1	17	.
CC1(C)CC2CC(C)(CN2c2ccc(C(F)(F)F)cc2[N+](=O)[O-])C1 (stereo unspecified)	.	-0.2
CC1CCN(Cn2c(=O)n(CN3CCC(C)CC3)c3ccccc32)CC1	7	.
O=C(COc1ccc(-c2nnco2)cc1)N1CCOCC1	13	.
CCOC(=O)C1CCN(Cn2nc(C3CC3)oc2=S)CC1	3	.
Cc1nc2cc(NC(=O)Nc3ccccc3Cl)ccc2n1C	23	0.2
COCC(C)NC(=O)c1cc(-c2cccs2)on1 (stereo unspecified)	3	1.1
COc1ccc(NC(=O)CC2NC3CCCCC3NC2=O)cc1Cl (stereo unspecified)	-22	.
CCC1S/C(=N\N=C\c2ccc(O)c(OC)c2)NC1=O (stereo unspecified)	-14	.
C=CCNC(=O)c1c(N)n(C2CCCCC2)c2nc3ccccc3nc12	8	0.7
O=C(COC(=O)[C@@H]1CCCN1S(=O)(=O)c1ccc(Cl)cc1)Nc1ccccc1	-4	.
O=C(CN1C(=O)c2ccc(Br)cc2C1=O)NCC1CCCO1 (stereo unspecified)	-13	3.2
CN(Cc1nc(-c2ccccc2)no1)C(=O)C(C)(C)C	16	-3.0
CCOc1cc(/C=N/O)cc(I)c1O	4	0.6
CCCc1nnc(SCC(=O)O)n1N	12	.
COC(=O)/C=C1/NCC(OC(=O)c2ccc(C(C)(C)C)cc2)CNC1=O (stereo unspecified)	.	-0.1
CC1CCN(C(=O)CC#N)CC1	.	-1.1
COc1ccc(C(O)(CCN2CCOCC2)c2ccccc2)cc1 (stereo unspecified)	-24	.
Cc1cc(-c2ccc(S(=O)(=O)N3CCCC3)cc2)nc2ccccc12	8	-2.8
O=C(CSc1nnnn1-c1ccccc1)NC(=O)Cc1ccccc1	0	.
COc1ccc(O)c(-c2cnc(=S)[nH]c2-c2cc(OC)ccc2OC)c1	-1	3.5
COC(=O)Cc1[nH]n(-c2ccc(F)cc2)c(=O)c1C(C)=NC1CC(C)(C)NC(C)(C)C1	2	-2.3
CCCNC(=O)N1CCCc2ccccc21	7	4.0
CCOC(=O)Cc1csc(NC(=O)CSc2nnc(-c3ccc(F)cc3)o2)n1	2	2.8
NC(=O)CC12CC3CC(C1)CC(CC(N)=O)(C3)C2	-11	.
COC(=O)c1ccc(S(=O)(=O)N(C)C2CCCCC2)o1	.	0.6
COc1ccc(OC)c(NC(=O)COc2coc(CN3CCc4ccccc43)cc2=O)c1	3	.
Cc1cc(OCc2c(C)c(C)c(C)c(C)c2C)c2c(Cl)ccc(C)c2n1	.	0.0
Clc1nc(Cl)nc(N2CCCCC2)n1	6	-4.0
COc1ccc(C(C)NC(=O)c2ccccc2)cc1 (stereo unspecified)	-5	1.8
CN1C(=O)C2(C(C#N)=C(N)N(c3ccccc3)C3=C2C(=O)CC(C)(C)C3)c2ccccc21 (stereo unspecified)	10	2.9
O=c1[nH]oc(O)c1-c1ccccc1	.	-1.5
CCOC(=O)COc1c(Br)cc(Br)c2cccnc12	-9	.
Cc1cccc(NS(=O)(=O)c2cc3c(cc2C)n(C)c(=O)c(=O)n3C)c1	8	.
CCOC(=O)N1CCN(C2CC(=O)N(CCc3ccc(OC)c(OC)c3)C2=O)CC1 (stereo unspecified)	1	2.4
CCN(CC(=O)NC1CCS(=O)(=O)C1)Cc1nc2c(Br)cc(Br)cc2c(=O)[nH]1 (stereo unspecified)	-11	.
Cc1cc(-n2c(C)cc(C(=O)COC(=O)C34CC5CC(CC(O)(C5)C3)C4)c2C)no1	-3	.
COc1ccc(-c2nc3scc(-c4ccccc4)n3n2)cc1	-12	.
Cc1ccc(NC(=O)COc2ccc3ccccc3c2Br)cc1F	7	-2.9
More entries follow.
SMILES	S aureus helic	MgrA-DNA mod
O=C1CC(c2ccccc2)CN1C(=O)c1ccccc1 (stereo unspecified)	3	2.4
CCOC(=O)c1noc(Oc2ccc(Cl)cc2Cl)n1	.	-2.1
O=C(COc1ccc(S(=O)(=O)NCc2ccccc2)cc1)NCc1ccco1	2	6.7
CS(=O)(=O)N1CCN(c2ccccc2NC(=S)NC(=O)c2ccc(-c3cccc(Cl)c3)o2)CC1	4	-0.8
CC(C)C(=O)N(Cc1ccccc1)c1ccccn1	12	-0.9
S=C1SCN(Cc2ccccn2)CN1Cc1ccco1	-10	.
CC1CC(N(CCC#N)S(=O)(=O)c2ccc(Br)cc2)CC(C)(C)C1 (stereo unspecified)	.	0.3
CCC(=O)N1N=C2C(C)CN(C)C(C)C2C1c1ccco1 (stereo unspecified)	12	0.1
COCCNC(=O)CN1CCN(Cc2cc(C)n(CCc3ccc(Cl)cc3)c2C)CC1	-7	.
O=C(Nc1ccc(C(F)(F)F)cc1)c1ccc2ncsc2c1	.	-2.1
C=CC(C)c1c(CCC)nc(-c2ccccn2)[nH]c1=O (stereo unspecified)	.	2.6
C=CCOc1ccc(C(=O)Nc2ccccn2)cc1	8	.
NC(=O)c1ccc(NC(=O)CC2Sc3ccccc3NC2=O)cc1 (stereo unspecified)	-19	.
C=CCn1c(C(C)Oc2cccc(C)c2)nc2ccccc21 (stereo unspecified)	-1	-1.3
CCOC(=O)c1c2c(n(-c3ccccc3)c1N)OC(=N)C(C#N)C2c1ccc(Br)cc1 (stereo unspecified)	-19	.
CC1(C)C(C=C(Cl)Cl)C1C(=O)Nc1ccccc1 (stereo unspecified)	-24	.
Cc1cc(/C=C(/C#N)C(=O)NC2CCCCC2)c(C)n1-c1ccc(I)cc1	8	2.8
Cc1cc2nnc(SCC(=O)N3CCCC3)n2c2ccccc12	22	.
CCOC(=O)c1c(C2CC2)csc1NC(=O)COn1nnc2ccccc21	-8	.
Cc1cccc(Nc2ncnc(N)n2)c1C	.	-1.5
O=C(c1cc2ncc(Br)cn2n1)N1CCCCC1	0	0.6
Cn1cnnc1SCc1cc(=O)c(OCC(=O)N2CCc3ccccc32)co1	11	.
N#Cc1c(CCl)cc(=O)n2c1sc1ccccc12	-57	3.8
Cc1cc(C)c(C)c(Cn2c(-c3ccco3)nc3ccccc32)c1C	2	.
O=C(CCN1C(=O)C2C3C=CC(C3)C2C1=O)N1CCN(c2ccccc2)CC1 (stereo unspecified)	4	.
CC(C)c1ccc(C2NC(=S)NC3=C2C(=O)CCC3)cc1 (stereo unspecified)	35	.
Clc1cccc(OCCN2CCCC2)c1	-4	3.1
CCOC(=O)N1CCC(NC(=O)c2cc3ccc4cccnc4c3[nH]2)CC1	-23	.
CCCc1ccc(NC(=S)OC)cc1	.	-0.8
Cc1cc(C)c(NC(=O)CSc2cc(C(F)(F)F)cc(C(F)(F)F)c2)c(C)c1	.	0.1
O=C1Nc2ccccc2S/C1=C/Nc1cccc(C(F)(F)F)c1	.	-1.2
Cc1ccc(NC(=S)C(C#N)C(=O)N2CCOCC2)c(C)c1 (stereo unspecified)	.	0.4
O=C(N=C1SCC(=O)N1c1ccccc1)c1ccco1	-3	0.5
C=CCn1c(SCC(=O)Nc2cc(C)on2)nnc1C1COc2ccccc2O1 (stereo unspecified)	-5	.
CCCNC(=O)Cn1nc(C)c2c(C)n(-c3ccc(C)cc3)nc2c1=O	-18	.
Cc1ccc(-c2nnc3n(CC(C)C)c(=O)c4ccccc4n23)s1	-1	.
O=C(CSC1CCS(=O)(=O)C1)NCC(=O)c1ccccc1 (stereo unspecified)	9	-0.8
COc1cccc(C(=O)Nc2sc3c(c2C(N)=O)CCC3)c1	7	-0.8
Cc1ccc(C)c2c1sc(=NC(=O)c1ccc(C#N)cc1)n2C	8	.
Cn1c(C(O)c2ccccc2)n[nH]c1=S (stereo unspecified)	-2	-1.2
Cc1ccc(C)c(S(=O)(=O)Nc2cc(Cl)c3oc(=O)sc3c2)c1	16	.
Cc1ccc(S(=O)(=O)N2CCN(C(=O)COC(=O)C3=COCCO3)CC2)c(C)c1	2	.
C=CC1=C(C(=O)O)N2C(=O)[C@@H](NC(=O)/C(=N/OCC(=O)O)c3csc(N)n3)[C@H]2SC1 (stereo in doubt)	.	-7.1
CC(C=C1C(=O)NC(=S)NC1=O)c1ccccc1 (stereo unspecified)	.	8.2
CCN(CC)C(=O)CSc1nnc2c3ccccc3n(C)c2n1	7	-0.4
O=C(NC1CCCC1)C(c1ccc(N2CCOCC2)cc1)N(Cc1ccco1)C(=O)c1ccco1 (stereo unspecified)	6	0.1
C[C@@H](C(=O)N1CCSC1=NCc1ccccc1)N1C(=O)C2CC=CCC2C1=O (stereo partly specified)	6	.
Cc1ccc(-c2noc(CNC(=O)CN(C)S(=O)(=O)c3ccc(C)cc3)n2)cc1	37	.
Clc1ccc(CSCc2cn3ccsc3n2)cc1	0	.
Cn1ccnc1SCC(=O)Nc1ccc(S(=O)(=O)Nc2ncccn2)cc1	-12	.

An excerpt from above in order of SMILES length, highest first:
SMILES	S aureus helic	MgrA-DNA mod
C=CC1=C(C(=O)O)N2C(=O)[C@@H](NC(=O)/C(=N/OCC(=O)O)c3csc(N)n3)[C@H]2SC1 (stereo in doubt)	.	-7.1
O=C(NC1CCCC1)C(c1ccc(N2CCOCC2)cc1)N(Cc1ccco1)C(=O)c1ccco1 (stereo unspecified)	6	0.1
Cc1ccc(S(=O)(=O)N2CCN(C(=O)COC(=O)C3=COCCO3)CC2)c(C)c1	2	.
Cc1ccc(-c2noc(CNC(=O)CN(C)S(=O)(=O)c3ccc(C)cc3)n2)cc1	37	.
C[C@@H](C(=O)N1CCSC1=NCc1ccccc1)N1C(=O)C2CC=CCC2C1=O (stereo partly specified)	6	.
O=C(CCN1C(=O)C2C3C=CC(C3)C2C1=O)N1CCN(c2ccccc2)CC1 (stereo unspecified)	4	.
CCOC(=O)N1CCC(NC(=O)c2cc3ccc4cccnc4c3[nH]2)CC1	-23	.
Cc1ccc(C)c(S(=O)(=O)Nc2cc(Cl)c3oc(=O)sc3c2)c1	16	.
Cn1cnnc1SCc1cc(=O)c(OCC(=O)N2CCc3ccccc32)co1	11	.
CCOC(=O)c1c(C2CC2)csc1NC(=O)COn1nnc2ccccc21	-8	.
Cc1ccc(-c2nnc3n(CC(C)C)c(=O)c4ccccc4n23)s1	-1	.
Cc1ccc(C)c2c1sc(=NC(=O)c1ccc(C#N)cc1)n2C	8	.
Cc1ccc(NC(=S)C(C#N)C(=O)N2CCOCC2)c(C)c1 (stereo unspecified)	.	0.4
COc1cccc(C(=O)Nc2sc3c(c2C(N)=O)CCC3)c1	7	-0.8
O=C(CSC1CCS(=O)(=O)C1)NCC(=O)c1ccccc1 (stereo unspecified)	9	-0.8
CCN(CC)C(=O)CSc1nnc2c3ccccc3n(C)c2n1	7	-0.4
O=C(N=C1SCC(=O)N1c1ccccc1)c1ccco1	-3	0.5
CC(C=C1C(=O)NC(=S)NC1=O)c1ccccc1 (stereo unspecified)	.	8.2
N#Cc1c(CCl)cc(=O)n2c1sc1ccccc12	-57	3.8
O=C(c1cc2ncc(Br)cn2n1)N1CCCCC1	0	0.6
Cn1c(C(O)c2ccccc2)n[nH]c1=S (stereo unspecified)	-2	-1.2
Cc1cccc(Nc2ncnc(N)n2)c1C	.	-1.5
Clc1cccc(OCCN2CCCC2)c1	-4	3.1
CCCc1ccc(NC(=S)OC)cc1	.	-0.8

More structures follow:
SMILES	S aureus helic	MgrA-DNA mod
Nc1c(S(=O)(=O)c2ccccc2)c2nc3ccccc3nc2n1/N=C/c1ccncc1	12	.
CSc1nc2ccccc2n1CC(=O)N1CCN(c2ccccc2)CC1	-8	.
O=S(=O)(c1cccs1)N1CCN(c2cnccn2)CC1	-4	.
OCCC12CC3CC(CC(C3)C1)C2	15	0.7
Cc1ccccc1Nc1nc(CSc2nnc(CN3CCCC3=O)o2)cs1	-2	.

Screens deposited in PubChem by ICCB-Longwood Screening Facility, Harvard Medical School.
